Screens deposited in PubChem BioAssay by National Center for Advancing Translational Sciences (NCATS).
VACV mCherry inh – qHTS for Stage-Specific Inhibitors of Vaccinia Orthopoxvirus: mCherry Reporter Primary qHTS; Vaccinia virus mCherry reporter infection, fluorescence; about a quarter of the inactives have no number; Potency, µM (doses to about 36.5 µM), for inactives: at the highest dose activity change, negative = inhibition, usual class: inhibitors; 310,000 tested, 0.63% active; active = well fitted inhibition curve with a large enough effect; inconclusive = small, poorly fitted or top-dose-only effect; inactive = no such curve, though single readings can be large or run the other way; tested in A549 cells; also: nearly all actives have a fitted effect of over 35% in size; inactives centre near -10
VACV Venus inh – qHTS for Stage-Specific Inhibitors of Vaccinia Orthopoxvirus: Venus Reporter Primary qHTS | 330,000 tested, 0.46% active | Vaccinia virus Venus reporter expression, fluorescence | Potency, µM (top dose mostly 36.5 µM), for inactives: top-dose activity change, negative = inhibition, hits mostly inhibitors; active means well fitted inhibition curve with a large enough effect; inconclusive means small, poorly fitted or top-dose-only effect; inactive means no such curve, though single readings can be large or run the other way; tested in A549 cells; also: nearly all actives have a fitted effect of over 30% in size; inactives centre near -10
* = called active by the depositor; i = inactive; ? = inconclusive; . = no result given; & = joins results of further samples; [ ] = remark or other dose. % is scaled to controls: 0 for no effect and ±100 for the full control effect; potency is read from the fitted curve at half-maximal effect.

Under each structure – VACV Venus inh | VACV mCherry inh
Cc1cccc(CCNC(=O)c2cc3c(=O)n(C)c4ccccc4c3n2C)c1
→ -7% | -5%
CCCn1c(CCCNC(=O)c2ccccc2OC)nc2ccccc21
→ -7% | -6%
CC(=O)NCCOc1ccc2oc3ccccc3c2c1
→ -27% | -6%
Cn1nnc2c(N3CCN(c4cccc(C(F)(F)F)c4)CC3)ncnc21
→ -19% | i
O=C(OCCC12CC3CC(CC(C3)C1)C2)c1ccc(NCc2cc(O)ccc2O)cc1
→ ? | -22%
Cc1ccc2cc(CN(Cc3ccco3)C(=S)NCC3CCCO3)c(=O)[nH]c2c1 (centres undefined)
→ 0% | i
Cc1cc2c(cc1C)C(=O)C(Br)=C(N)C2=O
→ -8% | ?
O=C(NCCCN1CCN(c2ccc(F)cc2)CC1)NC12CC3CC(CC(C3)C1)C2
→ -13% | ?
Cc1oc(-c2ccccc2NC(=O)c2ccccn2)nc1CNC(=O)c1ccc(Oc2ccccc2)o1
→ -6% | -11%
N#CCC(=O)Nc1ccc(C(=O)OCC(=O)N=c2sccn2Cc2ccccc2Cl)cc1
→ -9% | -17%
CN=C(Nc1cc(C)nn1CCC#N)c1ccccc1
→ -17% | -11%
COc1ccc2c(c1)c1c(c(=O)n(-c3ccccc3C)c(=O)n1Cc1cccc(C(F)(F)F)c1)n2C
→ -2% | -17%
COc1ccc(NC(=O)C2CCN(c3nnnn3-c3ccccc3)CC2)cc1
→ -8% | -21%
Cc1ccc(OCC(=O)Nc2ccc(N3CCOCC3)cc2)cc1
→ 62%[activator] | 4%
CCOc1ccc(CN2CCNC(=O)C2CC(=O)NCCN2CCOC2=O)cc1 (centres undefined)
→ -8% | -7%
COc1cccc(CC(=O)OCC(=O)N(C)CC(=O)Nc2ccc(Cl)c(C(F)(F)F)c2)c1
→ -12% | i
Cc1cc(OCC(=O)N[C@@H](Cc2ccccc2)C(=O)O)c2c3c(c(=O)oc2c1)CCCC3
→ 0% | -6%
COc1ccccc1C(O)c1nccn1Cc1ccccc1 (centres undefined)
→ -22% | -9%
O=c1cnc2ccccc2n1Cc1ccccc1
→ -11% | -4%
CCOC(=O)c1ccccc1C(=O)OCC
→ -6% | i
COc1ccc(OC)c(N(C)S(=O)(=O)c2cc3c(cc2C)NC(=O)CO3)c1
→ -28% | -26%
CC(C)(C)S(=O)N1Cc2cc(CO)cc(-c3ccccc3)c2[C@H]1CCO (some centres undefined)
→ 0% | -14%
COc1cccc(OCC(O)CN2CCN(c3ccccn3)CC2)c1 (centres undefined)
→ -15% | -17%
O=C(Nc1ccc(S(=O)(=O)Nc2nccs2)cc1)c1ccc(F)cc1
→ -6% | -11%
CSc1nsc(NC(=O)CCNC(=O)c2ccc([N+](=O)[O-])cc2)n1
→ -6% | -17%
CS(=O)(=O)c1ccc(/C=C2\C=Cc3ccccc32)cc1
→ -9% | 2%
COc1cccc(/C=c2\s/c(=C\C(=O)C(C)(C)C)[nH]c2=O)c1
→ ? | -26%
O=C(/C=C/c1ccccc1)N1CCN(Cc2nc3ccccc3c(=O)[nH]2)CC1
→ -25% | -7%
CC(C)N(C(=O)[C@H]1CC(CC(=O)NCCCN(C)C)C(=O)N2CCc3c([nH]c4ccccc34)[C@]12C)C(C)C (some centres undefined)
→ -17% | 0%
CCN(CC)CCCNC(=O)Cc1csc2nc(-c3ccc(Cl)cc3)cn12
→ -5% | -2%
CCc1ccc(NC(=O)CN2C(=O)CC(c3ccccc3)Sc3ccccc32)cc1 (centres undefined)
→ -10% | -8%
Cc1ccc(S(=O)(=O)NN2C(=O)/C(=C\c3ccc(Cl)cc3)SC2=S)cc1
→ -1% | -1%
CC(C)COC(=O)N1CCCC(c2cc(C(=O)Nc3ccccc3Cl)no2)C1 (centres undefined)
→ -2% | 2%
CCCCN(C)C(=O)c1ccc2c(c1)S(=O)(=O)c1ccccc1C2=O
→ -3% | ?
CCOc1ccc(CCNC(=O)c2cccc(N3CCCC3=O)c2)cc1OCC
→ -13% | -17%
O=C1CCCN1c1ccc(S(=O)(=O)N2CCC(c3ccccc3)CC2)cc1
→ -24% | ?
Cc1ccc(-n2nnnc2SCC(=O)N2Cc3ccccc3CC2C(=O)O)cc1 (centres undefined)
→ -29%[7.34 µM] | -6%[7.34 µM]
COc1ccc([N+](=O)[O-])cc1NC1CCN(C(=O)c2cccs2)CC1
→ -21% | i
CCN1C(=O)[C@H]2[C@@H](c3ccc(-c4ccc(OC)cc4)c(OC)c3)N[C@@](CC(C)C)(C(=O)OC)[C@H]2C1=O
→ -30% | i
COc1ccccc1NS(=O)(=O)c1ccc(O)c(NC(=S)NCC2CCCO2)c1 (centres undefined)
→ -7% | -25%
CCN(CC)CCCNC(=O)/C=C/C(=O)O
→ -14%[7.34 µM] | -20%[7.34 µM]
O=S(=O)(NCCn1ccc2ccccc21)c1ccccc1
→ 2% | 36%[activator]
Cn1c(=O)c2c(nc(C(O)c3ccccc3)n2C)n(C)c1=O (centres undefined)
→ -13% | 0%
COc1ccccc1-c1c(C)nn2c(NCCN3CCCC3)cc(C)nc12
→ -12% | -8%
N#Cc1ccc(-c2ccccc2)nc1SCCN1CCOCC1
→ -1% | i
COCC(=O)Oc1c(S(=O)(=O)c2ccccc2)c(C)nn1C(C)(C)C
→ -28% | -16%
CC(C)(C)c1nc(SCC(=O)NCc2ccco2)c2ccccc2n1
→ -16% | -4%
O=C(OCc1ccccc1)/C(=C/c1cccc2ccccc12)NC(=O)c1ccccc1
→ -25% | -25%
O=C(Cc1cccc2ccccc12)NCC(=O)Nc1ccccc1F
→ -14% | -19%
COc1ccc(NC(=S)N2CCC(N(C)CC3CCCO3)CC2)cc1 (centres undefined)
→ 13% | 3%
Cc1ccccc1NC(=S)NNC(=O)c1ccncc1
→ -4% | -7%
COc1ccc(F)cc1C(=O)C1CCCN(Cc2ccc(Oc3ncccn3)cc2)C1 (centres undefined)
→ 2% | -3%
CCc1ccc(NCc2cc3ccc(OC)cc3n(CC(=O)Nc3ccc(C)c(Cl)c3)c2=O)cc1
→ 22% | 7%
COC(=O)C1CCN(C(=O)Cn2nnc(-c3cccc(F)c3)n2)CC1
→ -2% | 0%
Cc1cc(NS(=O)(=O)c2ccc(NC(=O)C(C)Oc3cc(C)c(Cl)c(C)c3)cc2)no1 (centres undefined)
→ -9% | -5%
Cc1nc2ccc(C(=O)N3CCN(C(=O)c4ccco4)CC3)cn2c1N(C)C(=O)CCc1ccccc1
→ -1% | 4%
Cc1ccc(-n2c(CCC(=O)O)ccc2-c2cccs2)cc1C
→ -5%&3% | -2%
CC(C)N1C(=O)CCC1C(=O)NCCc1ccc(Cl)cc1 (centres undefined)
→ 0% | i
CCCCCNC(=O)c1cc(S(=O)(=O)N2CCCC2)ccc1F
→ -12% | i
CC(=O)n1cc([C@H]2C=C(C(=O)N3CCN(Cc4ccc5c(c4)OCO5)CC3)O[C@@H](OCCCCO)C2)c2ccccc21
→ -24% | i

Later entries.
Under each structure – VACV Venus inh | VACV mCherry inh
Cc1cc(C)cc(NC(=S)N(Cc2ccc(Cl)cc2)Cc2ccc(C(=O)O)cc2)c1
→ -14% | -1%
Cc1c(C)n(CCN(C)C)c2ncnc(NCc3ccccc3)c12
→ -13% | -21%
COCCn1c(SCC(=O)Nc2cccc(OC)c2)nc2c(oc3ccccc32)c1=O
→ ? | -4%
CC(OC(=O)Cn1cnc2c1c(=O)n(C)c(=O)n2C)C(=O)NC1CCCCC1C (centres undefined)
→ -8% | i
C(#CCN1CCCCC1)CN1CCCCC1
→ 0% | -3%
CC1CNCCN1S(=O)(=O)c1cccc2cnccc12 (centres undefined)
→ ? | ?
CCN(Cc1ccccc1)C(=O)CC(=O)N(CC)Cc1ccccc1
→ -15% | -9%
CC1=C(C(=O)Nc2ccc(C)cc2C)C(c2ccc(Br)cc2)n2ncc(C(=O)Nc3cccc(C)c3)c2N1 (centres undefined)
→ 0% | i
Cc1ccc(-c2noc(CCC(=O)NCCN3CCOCC3)n2)cc1
→ -23% | .
Cc1nc2ccccn2c1C(=O)N/N=C/c1ccccc1Cl
→ 3% | -9%
CC(=O)Nc1cc(N2C(=O)CCC2=O)ccc1Cl
→ -11% | -20%
O=C(O)c1cc2cccc(S(=O)(=O)N3CCOCC3)c2cc1O
→ -3% | -11%
CCC(C(=O)N(C(C)C)C(C)C)c1ccccc1 (centres undefined)
→ 0% | 0%
COC(=O)c1sc(NC(=S)NC(=O)c2ccccc2F)nc1C
→ -11% | ?
COc1ccc2nc(NC(=O)CSc3nc4ccccc4o3)sc2c1
→ ? | .
CCOC(=O)c1ccc(Oc2nc(NC)nc(SC)n2)cc1
→ -11% | -2%
O=C(CSc1nnc(Cc2ccccc2)o1)c1ccccc1
→ -7% | 0%
Cc1ccc(-c2nc3ccccc3[nH]2)cc1NC(=O)c1ccc2c(c1)OCO2
→ -19% | -23%
O=C(CN1CCC(Cc2ccccc2)CC1)N1CCc2ccccc2C1
→ 1% | -4%
Cc1cc(NC(=O)Cn2c(=O)nc(-c3ccccc3F)c3cc(Cl)ccc32)ccc1Br
→ -20% | -7%
Cc1ccc(-c2noc(CCCC(=O)NCC3CCCO3)n2)cc1 (centres undefined)
→ -10% | i
O=C1c2sc3nc4ccccc4n3c2C(=O)N1c1ccccc1Cl
→ -14% | -19%[1.46 µM]
COCCCNC(=O)c1cc(C(=O)c2c(-c3c(Cl)cccc3Cl)noc2C)c[nH]1
→ ? | .
Cc1ccc(OCC(=O)NCc2ccccn2)cc1
→ -14% | -15%[1.46 µM]
O=C(CCC1N=C2c3ccccc3N=C(SCc3cccc(F)c3)N2C1=O)NCc1ccc(F)cc1 (centres undefined)
→ ? | ?
CC1CCN(C(=O)CSc2nc3c([nH]c4ccccc43)c(=O)n2-c2ccccc2)CC1
→ -3% | -11%
COc1ccc(C)cc1NS(=O)(=O)c1ccc(Br)s1
→ -14% | i
Cc1ccc2c(c1)nnn2C1CCN(C(=O)NCc2ccccc2)CC1
→ -12% | i
CCCS(=O)(=O)N1CC(=O)N(c2ccc(C)cc2)C(C)(C(=O)NC2CCCCCC2)C1 (centres undefined)
→ -7% | -8%
O=S1(=O)CC(N2CCCC2)CN1C1CCCCC1 (centres undefined)
→ 7% | 22%

A second format for 6 compounds above.
SMILES,VACV Venus inh,VACV mCherry inh
CC1CCN(C(=O)CSc2nc3c([nH]c4ccccc43)c(=O)n2-c2ccccc2)CC1,-3%,-11%
O=C1c2sc3nc4ccccc4n3c2C(=O)N1c1ccccc1Cl,-14%,-19%[1.46 µM]
COCCCNC(=O)c1cc(C(=O)c2c(-c3c(Cl)cccc3Cl)noc2C)c[nH]1,?,.
O=C(CN1CCC(Cc2ccccc2)CC1)N1CCc2ccccc2C1,1%,-4%
COCCn1c(SCC(=O)Nc2cccc(OC)c2)nc2c(oc3ccccc32)c1=O,?,-4%
Cc1ccc2c(c1)nnn2C1CCN(C(=O)NCc2ccccc2)CC1,-12%,i

Next part
Under each structure – VACV Venus inh | VACV mCherry inh
COc1ccc(CNC(=O)CN2C(=O)C(c3ccccc3)Oc3cccnc32)cc1 (centres undefined)
→ -25% | -14%
CC(Sc1ccccc1)C(=O)NN=C1CCCC1 (centres undefined)
→ -8% | -5%
CCOC(=O)CCC(=O)NNC(=O)COc1ccc(C(C)C)cc1Br
→ -17% | ?
CCCCOc1ccc(S(=O)(=O)n2c(C)nc3ccccc32)cc1
→ -19% | -11%
COc1ccc(NC(=O)C2CCN(S(=O)(=O)c3c(C)noc3/C=C/c3ccc(C)cc3)CC2)cc1Cl
→ -21% | -21%
Cc1cc2c(C)c(C)c(=O)[nH]c2cc1N
→ -2% | -10%
COC(C[C@H](O)CC(=O)COCc1ccccc1)OC
→ -1% | -1%
O=C1C2C3c4ccccc4C(c4ccccc43)C2C(=O)N1c1nc(-c2ccccc2)cs1 (centres undefined)
→ 0% | -10%
Cc1ccc(-c2ncns2)cc1
→ 1% | -13%
CN(CC(=O)Nc1ccc(F)c(F)c1F)C(=O)c1ccc2c(c1)OCCO2
→ -7% | i
C=CCN1CCCC1CNC(=O)c1cc2[nH]nnc2cc1OC (centres undefined)
→ -7% | -10%
Cc1ccc(NC(=S)N2CCC(NC(=O)c3ccc(F)cc3)CC2)cc1
→ -4% | 6%
CC(=O)N1CCN(S(=O)(=O)c2ccc(Cl)cc2F)CC1
→ -7% | -1%
CCn1nc(C)c(CCN(C)C(=O)Nc2cc(Cl)ccc2C)c1C
→ 12% | -2%
O=C1NC(=O)C(=Cc2cc3c(cc2[N+](=O)[O-])OCO3)C(=O)N1
→ -1% | -3%
Cn1c(=O)c(=O)n(C)c2cc(S(=O)(=O)N3CCN(Cc4ccccc4)CC3)ccc21
→ -4% | i
O=C(Cc1ccccc1)NC1CCN(Cc2ccccc2)CC1
→ -9% | -9%
CC1(C(=O)Nc2cccc3cccnc23)CCN1Cc1ccc(-c2ccccc2)o1 (centres undefined)
→ 19% | ?
CC1(C)NC(=O)NC2(C)NC(=O)NC(C)(C)C12 (centres undefined)
→ 1% | -5%
Cc1ccc(SCC(=O)OC(C)C(=O)NCc2ccccc2)cc1 (centres undefined)
→ -16% | i
CCOC(=O)c1c(-c2ccc(C)cc2)csc1NC(=O)c1ccc(C(C)(C)C)cc1
→ 1% | -14%
O=C(Nc1ccccc1)C(c1ccccc1)C1CCCC1 (centres undefined)
→ -12% | i
